Compound activity (PubChem BioAssay)
PABP FP inh = PABP poly(A) RNA binding inhibitors, primary screen, biochemical, fluorescence polarization, uHTS; Polyadenylate-binding protein 1 (Homo sapiens), P11940; inhibition, % at 35 µM; hit rate 1% among 290,000;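 active = 50% or more with normal probe brightness, or confirmed in later tests; about a fifth of its hits are not listed in these tables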;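 also: calls also rest on retests at 20 µM and on dose response follow-up; controls were probe without protein and protein plus probe with vehicle; some compounds called inactive have numbers as strong as hits; many hits fall short of the cut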
CSC inhib = cancer stem cell viability inhibitors, primary screen, luminescence; cancer stem cell-like cells viability; inhibition, % at 7.5 µM; hit rate 1.1% among 300,000; AID 2717, 2010;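 active = mean at 75% or more and at least half the replicates too; tested in HMLE shEcad cells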;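 also: 0% = median of negative and 100% = median of positive control wells; the first replicate is given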
UUG fidelity = modulators of yeast start codon fidelity, primary screen, whole organism, S. cerevisiae, single point, plate reader | activity score, % at 18.7 µM | hit rate 0.13% among 350,000 | S. cerevisiae UUG-firefly luciferase reporter, luminescence/redox ratio;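 active = replicate mean at a twofold rise or more, about +100% in these data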;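 also: firefly luciferase made from a UUG start codon reports start codon fidelity; reporter light over untreated wells divided by growth signal over untreated wells; some hits fall short of that in this replicate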
HIV Env fusion = inhibitors of HIV-1 Env-driven cell-cell fusion, primary screen, HeLa-JRFL effector, CEM21 target cells, luciferase | inhibition, % at 12.3 µM | hit rate 1.1% among 360,000 | AID 651610, 2012;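 active = mean replicate inhibition score of at least 50 and every replicate individually at or above 50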;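 also: 0% = plate neutral controls and 100% = maraviroc near 300 nM; one replicate is shown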
eIF4H FP inh = human eIF4H binding inhibitors, primary screen, translation initiation inhibitor project, biochemical, uHTS, fluorescence polarization. Eukaryotic translation initiation factor 4H (Homo sapiens), Q15056. eIF4H fluorescence polarization binding assay. inhibition, % at 35 µM. hit rate 0.94% among 290,000. AID 2012, 2009;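 active = 50% or more with normal probe brightness, or confirmed in later tests; about a fifth of its hits are not listed in these tables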;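 also: calls also rest on retests at 20 µM and on dose response follow-up; 0% = protein and probe with vehicle and 100% = probe without protein; strong numbers were not always called active; many hits fall short of the cut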
MT1-MMP act inh = blockers of MT1-MMP proenzyme processing, primary screen, HT1080 RFP-PRO-GFP cells, GFP/RFP fluorescence. Matrix metalloproteinase-14 (Homo sapiens), P50281. GFP/RFP ratio fluorescence, overnight; percent of plate control window, DMSO zero. GFP/RFP ratio change, % at 20 µM. hit rate 0.061% among 360,000. AID 651647, 2012;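 active = GFP/RFP ratio change of at least 30% with cell ATP level not reduced by more than half and red fluorescence within 50% of control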; also: strong numbers were not always called active
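Assay system: HT1080 cells carrying an RFP-PRO-GFP reporter | Dosing: Single dose of 20 µM compound, 1% DMSO final | Incubation: Cells overnight before dosing, compound overnight, 37 °C, 5% CO2 | Evaluation: GFP/RFP fluorescence ratio | Control set: DMSO and RFP-L50D-GFP cell wells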
Rce1 inh = yeast Rce1p protease inhibitors, primary screen, biochemical, fluorescence, cell-free homogeneous. hit rate 0.27% among 290,000. yeast membranes, quenched prenylated peptide cleavage fluorescence. AID 2563, 2010. CAAX prenyl protease 2 (Saccharomyces cerevisiae (strain ATCC 204508 / S288c)), Q03530. calls only;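 active = fall in fluorescence gain of 50% or more versus controls, with final raw signal at or below 3038400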;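 also: plate controls were neutral control wells for no effect and wells lacking membranes for full effect; tested at 10 µM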
Target sequence (Q03530 whole entry, looked up): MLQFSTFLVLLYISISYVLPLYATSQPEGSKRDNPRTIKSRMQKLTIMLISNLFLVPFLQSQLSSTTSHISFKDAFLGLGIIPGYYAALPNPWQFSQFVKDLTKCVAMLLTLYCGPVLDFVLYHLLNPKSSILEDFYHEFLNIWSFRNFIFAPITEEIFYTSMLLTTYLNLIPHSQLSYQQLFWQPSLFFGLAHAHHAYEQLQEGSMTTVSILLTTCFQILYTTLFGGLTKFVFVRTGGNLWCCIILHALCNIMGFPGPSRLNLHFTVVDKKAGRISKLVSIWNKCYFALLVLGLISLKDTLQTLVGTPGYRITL
eIF4H FP inh retest = recorded beside eIF4H FP inh, whose call it bears; inhibition, %; compound at 20 µM; confirmation average;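 mean of two retest wells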
PABP FP inh retest = second read-out of PABP FP inh, no call of its own (marks repeat the call); inhibition, %; compound at 20 µM; confirmation repeats;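 mean of two retest wells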
MT1-MMP act inh RFP = second read-out of MT1-MMP act inh, no call of its own (marks repeat the call); RFP signal change, %; measured here: RFP expression control read;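 0 = vehicle wells; hits needed this value within 50% of zero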
Active calls of the source: *; i = inactive; · = not tested or not shown; & = joins results of further samples.

Start of the data: the first two compounds, ahead of the listing:
SMILES	PABP FP inh	CSC inhib	UUG fidelity	HIV Env fusion	eIF4H FP inh	MT1-MMP act inh	MT1-MMP act inh RFP	Rce1 inh	others
Cc1onc(-c2ccccc2)c1C(=O)Nc1ccc(-c2nnc3n2CCCCC3)cc1	1	12	-18	-45	9	-2	1	i
CCCC(=O)NC(=S)Nc1c(C)cc(Br)cc1C	·	15	-9	·	·	-2	-6	i

Main list (from the top)
SMILES	PABP FP inh	CSC inhib	UUG fidelity	HIV Env fusion	eIF4H FP inh	MT1-MMP act inh	MT1-MMP act inh RFP	Rce1 inh	others
Cc1onc(-c2ccccc2)c1C(=O)Nc1ccc(-c2nnc3n2CCCCC3)cc1	1	12	-18	-45	9	-2	1	i
CCCC(=O)NC(=S)Nc1c(C)cc(Br)cc1C	·	15	-9	·	·	-2	-6	i
CC(=O)Nc1ccc(C(=O)CSc2nnnn2C2CCCC2)cc1	-12	·	·	4	-7	2	1	i
O=C(NC1CCN(C(=O)Nc2ccc(F)cc2)CC1)c1cccc(F)c1	-5	-8	10	22	-8	2	1	·
O=C(O)[C@H](Cc1ccccc1)NC(=O)N1CCN(c2ccccc2)CC1	-8	-6	2	13	-3	2	2	i
CC(C)C(=O)Nc1c(C(=O)c2ccc(F)cc2)oc2ccccc12	-9	5	-13	-121	3	-9	-5	i
C/C(=N/NC(=O)c1cccc(N2CCCC2=O)c1)c1ccncc1	5	-8	·	-20	-9	-3	-2	i
CC(=O)Nc1cccc(NC(=O)CSc2nnc(Cc3cccn3C)n2-c2ccc(F)cc2)c1	-16	-14	-22	·	-11	-6	0	i
CC1(C)C(C=C(Cl)Cl)C1C(=O)N1CCN(Cc2ccccc2)CC1 (stereo not drawn)	-2	6	1	14	9	2	0	i
COCCN1CCN(c2cc(-c3ccccc3)nc3cc(-c4cccc(F)c4)nn23)CC1	-1	22	-3	·	0	-2	-13	i
Cc1ccccc1NC(=O)c1ccc(C)c(S(=O)(=O)N2CCN(C)CC2)c1	-5	·	-5	-20	-8	-1	0	i
COc1ccc(/C=N/NC(=O)c2nnn(-c3nonc3N)c2CN(C)C2CCCCC2)cc1	11	0	·	-7	-2	-1	2	i
O=C(N/N=C/c1ccc(N2CCOCC2)cc1)c1ccc(NS(=O)(=O)c2cccs2)cc1	3	1	-17	6	-4	-2	0	i
O=C(O)c1cnn(-c2ccccc2)c1-c1ccncc1	23	-19	-13	-16	57*	1	4	i	eIF4H FP inh retest=67*;PABP FP inh retest=48
Cc1ccc2nc(NC(=O)CCCC(=O)O)sc2c1	1	-2	·	69*	-4	-3	1	·
Cc1cc(C(F)F)nn1CC(=O)NC1CCCCCC1	2	1	-4	-421	5	1	3	i
O=C1c2ccccc2C(=O)N1CCCCc1cn(C[C@H]2CC[C@H](Cn3cc(CCCCN4C(=O)c5ccccc5C4=O)nn3)O2)nn1	·	·	-14	10	·	-5	-22	·
COc1ccc(C(=O)c2c(C)oc3ccc(O)c(CN4CCOCC4)c23)cc1	-2	-9	·	-81	8	-2	0	i
COc1ccc(-c2sc(Nc3cccc4ccccc34)n[n+]2C)c(C)c1C	·	·	-4	8	·	0	0	·
COc1cc(C)ccc1S(=O)(=O)NC(=O)Cn1nnc(COc2ccc3c(c2)CCCC3)c1C	·	·	-19	-15	·	2	2	·
O=C(N/N=C/c1ccccc1F)NC1CCCCC1	-4	1	·	11	-14	7	8	i
COc1ccc(C(=O)/C=C/c2ccc(OC(=O)c3cc(OC)c(OC)c(OC)c3)cc2)cc1	-9	17	-12&1	1	-10	-3	-19	i
Cc1nn(C)cc1C(C(=O)NC1CCCCC1)N(C(=O)Cc1cccs1)c1ccc(C(C)C)cc1 (stereo not drawn)	4	-17	-7	-39	-10	-13	-12	i
CS(=O)(=O)N(CC(=O)NC1CCCC1)Cc1ccc(Cl)cc1	-7	·	-6	-1	-4	2	1	i
Cc1c(C)n(CC(O)CNCCO)c2ccccc12 (stereo not drawn)	-14	5	·	13	19	0	5	i
CCOc1ccccc1NS(=O)(=O)c1cn(C)c(=O)n(C)c1=O	5	0	·	·	-5	·	·	i
Cc1cccc(NC(=O)CN(C)C(=O)c2ccc(N3CCCCCC3)c([N+](=O)[O-])c2)c1C	·	-10	-1	13	·	1	-3	·
CCCn1c2c(c(O)c(C(=O)Nc3ccc(OCC)cc3)c1=O)CCCC2	-8	15	-16	·	-7	5	3	i
COc1ccc(NC(=S)Nn2cnnc2)cc1OC	4	-13	·	16	-9	-1	0	i
C=CC[C@@H](CC(=O)N(CCO)Cc1ccccc1)C(=O)N[C@@H](COC(=O)[C@@H](CC=C)CC(=O)OC(C)(C)C)Cc1c[nH]c2ccccc12	·	6	-8	-44	·	-9	-13	·
CCn1c(SCC(=O)N2CCC(C)CC2)nnc1-c1ccc(S(=O)(=O)N2CCN(C)CC2)cc1	-5	-9	-10	-37	-1	·	·	i
O=C(NC1CCCCCC1)c1c(O)c2ccccc2[nH]c1=O	3	27	0	·	-5	2	-4	i
Cc1ccc(NC(=O)/C(=C/c2cccs2)NC(=O)c2ccco2)cc1	1	-6	·	·	2	-7	1	i
COc1cccc2cc(C(C)N(CCCN3CCOCC3)C(=S)Nc3cccc(C)c3C)oc12 (stereo not drawn)	2	-3	-14	-9	-4	4	2	i
O=C1NCCCC2c3c(cc(Br)c(O)c3Br)OC12N1CCOCC1 (stereo not drawn)	1	-11	-25	-63	17	-4	4	i
COC(=O)C1=NN(C(C)=O)C2(CC(=O)N(c3cccc(C)c3)C2=O)C1 (stereo not drawn)	1	-6	·	-7	1	-3	-1	i
COc1cc2[nH]c(=S)nc(Nc3ccc(NC(C)=O)cc3)c2cc1OC	-7	-3	·	-17	0	5	5	i
CCOC(=O)c1c(C)[nH]c(C)c1S(=O)(=O)NCC1CCN(Cc2ccccc2F)CC1	-1	-7	-11	7	4	2	6	i
CCOc1ccc(-c2nnc(-c3cccnc3)o2)cc1OCC	1	·	·	11	-4	0	-2	i
CCC(C)NC(=S)Nc1ccc2nc(N3CCOCC3)cc(C)c2c1 (stereo not drawn)	4	30	-18	-14	-6	6	-2	i
COc1ccc(Oc2nc(SC)nc3ccccc23)cc1	-11	-1	-16	·	-11	-5	-9	i
Cc1ccc(CN2CCN(C3CCC3)CC2CCO)cc1 (stereo not drawn)	-2	-5	-6	-11	2	-2	2	i
CCN(CC1COc2ccccc2O1)C(=S)NC1CC2CCC1C2 (stereo not drawn)	-3	-5	·	0	-2	2	1	i
COc1cccc(CNC(=O)c2ccc(CS(=O)c3ccccc3)o2)c1 (stereo not drawn)	-10	-9	-2	5	-4	1	1	i
Cc1ccc(C(=O)Nc2ccc3[nH]c(=O)[nH]c3c2)c(C)c1	-7	-9	·	-32	2	1	-4	i
O=C(NC(c1ccc2c(c1)OCO2)c1ccccn1)C1CCN(CCOc2ccccc2)CC1 (stereo not drawn)	·	·	-21	5	·	2	2	·
CN(C)S(=O)(=O)c1cccc(NC(=O)CNCc2ccccn2)c1	8	-8	-16	-2	8	3	4	i
O=C(Nc1cccc(C(=O)N2CCOCC2)c1)c1ccc([N+](=O)[O-])cc1	3	6	2	-9	52	-1	2	i	eIF4H FP inh retest=7;PABP FP inh retest=9
COc1ccc(C(CNC(=O)c2cc(C)oc2C)N2CCOCC2)cc1 (stereo not drawn)	11	-1	15	-31	1	0	2	i
Cc1ccc(C(=O)N2CCOCC2)cc1[N+](=O)[O-]	3	-3	-11	1	-2	1	2	i
CCOC(=O)c1c(NC(=O)c2cnn3c2NC(c2cccc(OC)c2)CC3C(F)(F)F)sc2c1CCCC2 (stereo not drawn)	2	-10	·	2	1	-9	-6	i
Cc1ccc(C)c(S(=O)(=O)Nc2ccc(C(N)=O)cc2)c1	-12	·	-4	0	5	6	1	i
OC(c1ccccc1)(c1nc(/C=C/c2ccc(C(F)(F)F)cc2)cs1)C(F)(F)F (stereo not drawn)	·	·	-14	3	·	2	-6	·
N#Cc1cn(CC(=O)N2CCCC2)c2ccccc12	-2	-2	-22	19	-11	-2	4	i
O=C(N/N=C/c1c[nH]c2ccccc12)c1ccn[nH]1	-9	11	·	-3	2	5	0	i
CCCc1cc(=O)[nH]c(SCc2cc(C(=O)OC)c(C)o2)n1	11	-12	12	-31	12	0	3	i
Cc1ccc(-c2[nH]ncc2C(=O)c2cccc(F)c2)c(O)c1	5	9	-3	29	0	2	-5	i
COc1ccccc1-c1cc2nc(NCCOc3ccccc3)ccn2n1	·	·	-18	22	·	3	2	·
CCSC(SCC)[C@H](O)[C@@H](O)[C@H](O)[C@H](O)CO	-14	-10	-9	·	-1	1	3	i
CCN(CC(=O)Nc1ccc(S(=O)(=O)N2CCOCC2)cc1)Cc1ccccc1	·	6	·	-2	·	-7	-3	i
(continued)
SMILES	PABP FP inh	CSC inhib	UUG fidelity	HIV Env fusion	eIF4H FP inh	MT1-MMP act inh	MT1-MMP act inh RFP	Rce1 inh	others
COc1ccc(S(=O)(=O)N(C)c2c(C)n(C)n(-c3ccccc3)c2=O)cc1OC	-7	-12	·	·	2	-1	1	i
O=C(CCN1CCN(S(=O)(=O)c2ccc(F)cc2)CC1)Nc1ccccc1F	9	4	-24	-2	-1	0	-1	i
O=C(O)C1C(=O)NCC1c1ccccc1 (stereo not drawn)	-12	-2	·	4	5	-1	4	i
O=c1c(CN2CCN(c3cccc(Cl)c3)CC2)coc2c(Cl)cc(Cl)cc12	5	29	-6	·	-4	0	4	i
Cc1csc(=O)n1CC(=O)Nc1ccc(Cl)c(Cl)c1	·	3	-10	·	·	5	2	·
CCN1CCN(CC(=O)Nc2cc(F)ccc2C)CC1	-5	4	-7	-34	2	1	4	i
Cc1ccc(Nc2c(-c3ccccn3)nc3cc(C)ccn23)cc1	3	98*	-31	4	10	-8	-19	i
CC(=O)NCC(O)c1ccc([N+](=O)[O-])cc1 (stereo not drawn)	17	-3	·	1	10	1	-1	i
CCCCN(CC)CCNC(=O)CCNC(=O)Cn1ccc2ccccc2c1=O	-3	-5	·	-5	-4	-2	0	i
CCc1csc(CNC(=O)C2CCC(=O)N(Cc3cccc(F)c3)C2)n1 (stereo not drawn)	-17	-3	-18	-4	-7	-1	1	·
Cc1c(NS(=O)(=O)c2cc([N+](=O)[O-])ccc2Cl)c(=O)n(-c2ccccc2)n1C	·	-5	·	13	·	3	4	i
O=C(COc1ccc2ccccc2c1)NCCNC(=O)COc1ccc2ccccc2c1	-8	-4	-9	·	-4	2	4	i
CCCCNC(=O)NS(=O)(=O)c1ccc(C(=O)OC(C)C)o1	2	-3	0	·	3	-1	5	i
COc1ccc(NC2CCCN(Cc3cccc4cnccc34)C2)cc1 (stereo not drawn)	10	-7	-14	2	-4	9	-6	i
Cn1c(CC(=O)NN)c(Sc2ccccc2)c2ccccc21	3	5	-10	5	-6	0	-2	i
CCOC(=O)/C(C#N)=C/c1cc(C)n(-c2ccccc2)c1C	-6	-10	·	·	8	0	-8	i
CCCOc1ccc(/C(O)=C2/C(=O)C(=O)N(CCN(C)C)C2c2ccc(OC)c(OC)c2)cc1 (stereo not drawn)	3	-10	-8	·	2	-2	-7	i
COc1ccc(OCC(=O)Nc2ccccc2C(=O)Nc2ccc(C(=O)O)cc2)cc1	20	-1	-13	-3	7	-1	-1	i
O=C(CNC(=O)c1ccc(Cl)cc1Cl)OCc1ccccc1	·	-10	0	0	·	3	3	i

Some of the compounds tested. The share of hits here may be higher or lower than overall.
